Compound activity (PubChem)
Calb FLC: affects C. albicans growth with fluconazole. C. albicans CaCi-2 (fluconazole-resistant clinical isolate) + fluconazole, Alamar Blue growth, 48 h. growth inhibition, % (no concentration beside the values). 300,000 tested, 0.57% active;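 active = most replicates above 75%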;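 note: all wells also contain fluconazole at 8 µg/ml as a sub-toxic cotreatment; 0% = median of DMSO wells and 100% = median of geldanamycin control wells; wells of about 8 µL received 7.5 nL stock; the first replicate is given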
B2AR ag: agonists of human beta-2 adrenergic receptor inducing internalization; P07550; Am2.2-beta2AR cells, FAP receptor internalization, flow cytometry; reference of the scale not given here; response, % (test concentration not listed); 340,000 tested, 0.43% active;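 active = response above a set limit, near 3 SD of response in nonfluorescent compounds, cut at about 42% in these data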;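 note: stock transfer was 100 nL into about 11 µL; a reference agonist was the positive control; negative values mostly stem from fluorescent compounds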
Target sequence (P07550 whole entry, looked up): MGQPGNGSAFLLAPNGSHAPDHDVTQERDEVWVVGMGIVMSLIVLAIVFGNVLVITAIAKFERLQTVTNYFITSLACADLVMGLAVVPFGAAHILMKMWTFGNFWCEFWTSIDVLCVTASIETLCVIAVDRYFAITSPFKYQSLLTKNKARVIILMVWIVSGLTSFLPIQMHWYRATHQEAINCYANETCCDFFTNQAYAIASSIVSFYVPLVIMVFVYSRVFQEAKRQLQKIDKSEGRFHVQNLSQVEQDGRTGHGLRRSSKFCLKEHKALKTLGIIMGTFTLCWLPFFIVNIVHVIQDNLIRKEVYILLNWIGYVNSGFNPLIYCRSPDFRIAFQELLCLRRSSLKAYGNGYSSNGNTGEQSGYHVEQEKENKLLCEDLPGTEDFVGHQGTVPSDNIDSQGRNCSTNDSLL
ALR H2O2 inh: blocks human ALR sulfhydryl oxidase activity. P55789. purified ALR, DTT oxidation, H2O2 HRP-luminol luminescence. inhibition, % (test concentration not listed). 290,000 tested, 3.8% active;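 active = mean and each replicate at 75% or more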;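 note: stock transfer was 7.5 nL into about 7.5 µL; 0% = neutral wells and 100% = wells with inactivated enzyme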
Target sequence (P55789 whole entry, looked up): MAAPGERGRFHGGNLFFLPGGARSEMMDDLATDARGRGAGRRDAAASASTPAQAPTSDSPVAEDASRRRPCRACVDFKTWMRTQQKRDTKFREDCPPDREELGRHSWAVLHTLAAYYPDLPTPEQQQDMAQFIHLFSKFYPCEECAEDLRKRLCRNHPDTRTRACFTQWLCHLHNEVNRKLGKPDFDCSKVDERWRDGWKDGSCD
A1 inh: inhibitors of the anti-apoptotic protein A1, read as caspase activation; MEF A1-2A-BIM cells, Caspase-Glo 3/7 luminescence, 3 h; percent of clofoctol response, vehicle zero; caspase activation, % (no concentration beside the values); 330,000 tested, 0.066% active;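 active = over half of replicate activation scores above 10%, or exactly half above 10 with the replicate mean above 10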;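 note: wells of about 30 µL received 50 nL stock; many hits fall short of the cut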
Beta cell apopt: beta cell apoptosis inhibition; 300,000 tested, 0.8% active; INS-1E cytokine-induced death, ATP luminescence, 48 h; percent of positive-control rescue, neutral wells zero; protection from apoptosis, % (no concentration beside the values);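 active = all replicates at 75% or more, or half of them and the mean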;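 note: 0% = cytokine-treated negative control wells and 100% = positive control rescue; higher means more ATP so stronger rescue from cytokine killing; wells of about 40 µL received 100 nL stock; the first replicate is given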
T cruzi repl: T. cruzi replication inhibition. T. cruzi beta-gal in NIH3T3, luminescence, 90 h. AID 1885. 300,000 tested, 1.4% active. inhibition, % (concentration not given with the values);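 active = mean inhibition across valid replicates above about 55%, limit read from the data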;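 note: signal also drops with host cell toxicity which is not excluded here; 0% = plate median of DMSO wells and 100% = zero luminescence signal; higher percent means less beta-gal luminescence so fewer parasites; stock transfer was 50 nL into about 50 µL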
LANA-H2B inh: blocks KSHV LANA binding to histone H2A/H2B. 320,000 tested, 0.6% active. inhibition, % (concentration not given with the values). AID 2629. cell-free LANA-H2A/H2B peptide, fluorescence polarization; in the data active = inhibition mostly above about 10%, no sharp cut-off; inactive = mostly below about 6.7%;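 note: stock transfer was 7.5 nL into about 10 µL; 0% = median of vehicle wells and 100% = median of positive control wells; one replicate is shown; the record names a cut of 25% in any replicate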
Ecoli rRNA inh: inhibitors of bacterial rRNA selective over humanized ribosomes. 350,000 tested, 1.6% active. GFP signal change (wild-type ribosome), % (test concentration not listed). E. coli WT GFP vs humanized-ribosome RFP mutants, fluorescence, 24 h; active compounds read low; DMSO median 0, no signal -100;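 active = significant combined selectivity score with lowered wild-type GFP, culture density cut under 30%, mutant RFP and density less affected; inactive = any of these conditions unmet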; note: one replicate is shown; some compounds called inactive have numbers as strong as hits
Ecoli rRNA inh OD600: further read-out of Ecoli rRNA inh, marked with its call; OD600 change, %; measured here: OD600 growth;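 optical density of the mix in the first replicate; 0 = DMSO median and -100 = no signal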
Ecoli rRNA inh RFP: second read-out of Ecoli rRNA inh, no call of its own (marks repeat the call); RFP signal change, %; measured here: RFP humanized mutant strains;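 first replicate; 0 = DMSO median and -100 = no signal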
* marks the source's active call; other numbers are inactive results; nt = not tested or not shown. These rows are one share of the data. The share of hits here may be higher or lower than overall.

The first 4 records, to show the layout:
SMILES	Calb FLC	B2AR ag	ALR H2O2 inh	A1 inh	Beta cell apopt	T cruzi repl	LANA-H2B inh	Ecoli rRNA inh	Ecoli rRNA inh OD600	Ecoli rRNA inh RFP
CC1CN(C(=O)COC(=O)c2cc(Cl)ccc2[N+](=O)[O-])CC(C)O1 (stereo not drawn)	-1	-25	-12	-0.8	nt	-4	-4.2	1	5	-1.7
Cc1ccccc1NC(=S)N(C)Cc1cccs1	-10	-7	7	1.8	-2	-16	1.9	nt	nt	nt
O=c1[nH]cnc2c1c(-c1ccccc1)cn2-c1ccc(Br)cc1	-1	-11	0	0.2	3	7	1.0	5	2	-2.6
Cn1c(CC(=O)NNC(=O)c2ccc(Cl)nc2)nc2ccccc21	nt	-7	-4	0.8	-7	nt	0.0	3	6	-0.1

This part in full (from the top)
SMILES	Calb FLC	B2AR ag	ALR H2O2 inh	A1 inh	Beta cell apopt	T cruzi repl	LANA-H2B inh	Ecoli rRNA inh	Ecoli rRNA inh OD600	Ecoli rRNA inh RFP
CC1CN(C(=O)COC(=O)c2cc(Cl)ccc2[N+](=O)[O-])CC(C)O1 (stereo not drawn)	-1	-25	-12	-0.8	nt	-4	-4.2	1	5	-1.7
Cc1ccccc1NC(=S)N(C)Cc1cccs1	-10	-7	7	1.8	-2	-16	1.9	nt	nt	nt
O=c1[nH]cnc2c1c(-c1ccccc1)cn2-c1ccc(Br)cc1	-1	-11	0	0.2	3	7	1.0	5	2	-2.6
Cn1c(CC(=O)NNC(=O)c2ccc(Cl)nc2)nc2ccccc21	nt	-7	-4	0.8	-7	nt	0.0	3	6	-0.1
Cn1c(=O)c2c(nc(SCc3nc(N)nc(N4CCCCC4)n3)n2C)n(C)c1=O	-2	-11	-1	1.8	-2	-7	1.7	nt	nt	nt
COc1cc(OC)cc(C(=O)Nc2ccccc2S(=O)(=O)N2CCCC2OC(C)=O)c1 (stereo not drawn)	7	4	-10	-0.3	3	-2	-1.0	-8	-16	1.6
CSc1ccc(S(=O)(=O)N(CC(=O)NCc2ccccn2)c2ccc(C)cc2)cc1	9	-17	-14	-0.7	-2	7	-0.3	-25	-42	-2.3
COc1ccccc1C(=O)Nc1ccccc1C(=O)N1CCCC1	-2	-3	-39	0.6	-6	-15	-0.1	nt	nt	nt
C=C(C)CSc1cc(C)c(C#N)c2nc3ccccc3n12	35	7	-4	0.5	0	-5	3.6	-15	-19	5.6
COC(=O)C1CC(O)CN1S(=O)(=O)c1ccc2ccccc2c1 (stereo not drawn)	nt	-7	-2	-0.1	-9	nt	-0.8	6	-6	-0.4
COc1ccc(C(=O)NCCS(=O)(=O)N2CCOCC2)cc1	-6	-2	-2	-0.4	0	-4	7.7	5	-3	0.0
CC(NS(=O)(=O)c1ccc2c(c1)C(=O)c1cc(S(=O)(=O)NC(C)C(=O)O)ccc1-2)C(=O)O (stereo not drawn)	-2	4	-2	0.4	nt	-3	1.9	14	15	0.4
COc1ccc(NC(=O)c2ccc3c(c2)S(=O)(=O)c2ccccc2C3=O)cc1	-3	3	-18	-0.7	-7	2	2.9	11	4	0.1
COC(=O)c1ccccc1NC(=O)C1CC(c2ccc(F)cc2)=NO1 (stereo not drawn)	-26	-2	-3	-0.4	-5	19	-0.4	3	2	-7.8
COc1ccc(CCNC(=O)c2cc(-c3ccc(C)c(C)c3O)n[nH]2)cc1OC	-6	0	-3	0.0	-2	-1	-8.6	nt	nt	nt
O=C(CSc1nnc(CNc2ccc(F)cc2)n1Cc1ccco1)N1CCOCC1	-8	6	0	-0.1	nt	-9	7.1	nt	nt	nt
CC(C)CN(C(=O)/C=C/c1nc2ccccc2s1)C1CCS(=O)(=O)C1 (stereo not drawn)	14	7	6	-0.3	2	-11	2.6	3	-6	-1.5
O=S(=O)(c1ccccc1)N1CCN(C(=S)NC2CCCC2)CC1	-14	-9	-9	2.0	-3	nt	-1.5	-2	-2	3.7
O=C1/C(=C\c2cccnc2)SC(=S)N1c1ccc(F)cc1	-11	-104	nt	-0.2	-10	-12	-10	18	14	4.6
CC(=O)Nc1ccc(NS(=O)(=O)c2ccc(CN3C(=O)c4cccnc4C3=O)cc2)cc1	-15	6	-2	0.2	-5	-12	3.4	9	9	-1.5
Cc1ccc(SCCC(=O)N2CCN(S(=O)(=O)c3ccccc3)CC2)cc1	nt	13	nt	1.6	2	nt	0.8	-25	-25	0.3
CSC1=NCCN1C(=O)c1c(-c2c(F)cccc2Cl)noc1C	-7	-5	-7	0.9	3	-6	-1.5	-8	0	-0.5
CN(C)Cc1c(O)ccc2ccccc12	19	2	11	0.9	-7	-4	3.6	-51	-52	-16
CCOCc1c(C(=O)N2CCN(Cc3ccc(Br)s3)CC2)oc2ccccc12	nt	-3	1	-0.2	1	nt	7.6	nt	nt	nt
CCN(CC)c1ccc(S(=O)(=O)N2CCOCC2)cc1NC(=O)COC(=O)/C=C/c1ccc(C)o1	-1	15	-1	0.2	5	3	-2.2	2	-6	2.5
Continuation.
SMILES	Calb FLC	B2AR ag	ALR H2O2 inh	A1 inh	Beta cell apopt	T cruzi repl	LANA-H2B inh	Ecoli rRNA inh	Ecoli rRNA inh OD600	Ecoli rRNA inh RFP
C#Cc1ccc([C@@H]2C=C(C(=O)O)O[C@H](OCC)[C@H]2CCCO)cc1	-4	-1	17	0.7	-5	-21	-2.0	9	3	1.9
Cc1onc(-c2ccccc2Cl)c1C(=O)OCN1C(=O)c2ccccc2C1=O	4	-1	-2	0.5	-1	2	-4.0	nt	nt	nt
O=c1cc(O)n(Cc2ccc(F)cc2)c(=O)[nH]1	-3	3	5	1.4	-18	-5	1.3	6	0	-1.2
CC(CN1C(C)CCCC1C)OC(=O)c1ccccc1Cl (stereo not drawn)	-11	-5	nt	-0.9	-22	5	-0.7	4	2	2.0
CCCCN1C(=O)/C(=C2/Sc3ccccc3N2C)S/C1=N\c1ncn[nH]1	2	5	6	4.2	41	39	8.9	24	12	2.0
COc1ccc(N2CCN(Cc3oc(CO)cc(=O)c3O)CC2)cc1	0	-7	61	-0.8	-13	-12	-0.2	nt	nt	nt
Cc1c(C)[n+](=O)c2c(n1[O-])C(Br)CCC2Br (stereo not drawn)	-5	8	-10	0.7	-2	14	0.0	14	3	0.1
CCN(CC)CCn1c2c(c(SCC(=O)Nc3nc(C)cs3)nc1=O)CCC2	-2	-2	99*	0.2	-11	24	-3.6	4	7	-4.5
CC(/C=N\NC(=O)c1ccc2c(c1)OCO2)c1ccccc1 (stereo not drawn)	-2	-9	2	0.5	-5	-6	-3.6	nt	nt	nt
CCCCN(CCCNC(=O)c1ccc2nc(N3CCOCC3)sc2c1)Cc1ccccc1	-26	-9	-4	-0.1	5	10	2.0	nt	nt	nt
Cc1cc(C)cc(NC(=O)CN2CCN(CCN=CC3=C(O)CC(C)(C)CC3=O)CC2)c1	3	-12	2	0.0	-2	-14	-5.9	nt	nt	nt
COCCC(C(=O)Oc1c(C(C)(C)C)cc(C)cc1C(C)(C)C)c1ccccc1 (stereo not drawn)	nt	-1	-7	0.0	10	nt	0.3	0	7	-5.7
CC(C)OC(=O)CCc1nc2ccccc2[nH]c1=O	-3	-2	nt	-0.1	-5	-8	3.8	nt	nt	nt
CCCCCn1c(SCCN2CCOCC2)nc2c1c(=O)[nH]c(=O)n2C	-8	-5	-2	-0.9	-6	11	3.0	nt	nt	nt
O=C(CC1C(=O)NCCN1Cc1c(F)cccc1Cl)NCCCn1cccn1 (stereo not drawn)	3	0	-1	2.1	-6	-3	-0.7	3	4	4.1
COc1ccc(N2C(=O)C3CCCN3C2c2ccc(C)cc2)cc1 (stereo not drawn)	-1	-2	-8	0.2	0	8	3.6	8	11	0.1
COc1ccc(-n2c3c(c(=O)[nH]c2=O)C(NS(=O)(=O)c2ccc(Cl)cc2)(C(F)(F)F)C(=O)N3)cc1 (stereo not drawn)	-4	16	-10	0.6	-1	4	-3.6	8	6	-2.0
O=C(CCCCCn1c(=O)[nH]c2ccsc2c1=O)NCc1cccs1	-15	4	-6	0.9	0	4	2.1	nt	nt	nt
Cc1ccc(C(=O)COC(=O)c2ccc(Cl)c(N)c2)s1	nt	2	3	-5.8	-5	nt	5.2	3	-13	-3.9
Clc1ccc(C2=NNC(=NCc3ccccc3)SC2)cc1	-12	5	-12	0.3	3	30	-0.4	2	6	2.7
CC1CCCC(C)N1/N=C/c1cc(Br)cc(Br)c1O (stereo not drawn)	-2	2	14	0.3	-10	5	3.7	nt	nt	nt
CC(C)(C)n1nc2c(c1NC(=O)Cc1ccc(F)cc1)CSC2	10	7	-3	0.5	-7	-6	-2.5	7	2	-5.3
C=CCNC(=O)CCCc1ccccc1	0	-4	-4	nt	-2	-1	-0.5	nt	nt	nt
CN1/C(=C\C=C(C#N)C#N)C(C)(C)c2ccccc21	-34	8	-9	-0.3	4	20	45*	87	3	35
CS(=O)(=O)Cc1ccc(C(=O)Nc2cccc(-c3nc4ccccc4[nH]3)c2)cc1	4	-4	-6	-2.8	1	-1	-1.6	0	-3	-6.7
COc1cc(OC)c(CN2CCc3c([nH]c4ccccc34)C2)cc1Br	10	-43	-15	-0.7	-1	14	-0.2	14	0	4.0
COc1ccc(NC(=O)C23CC4CC(C2)CC(c2ccccc2)(C4)C3)c(OC)c1	5	2	nt	-0.3	-3	19	-1.4	nt	nt	nt

Ordered by number of heavy atoms (low to high): part of the list above.
SMILES	Calb FLC	B2AR ag	ALR H2O2 inh	A1 inh	Beta cell apopt	T cruzi repl	LANA-H2B inh	Ecoli rRNA inh	Ecoli rRNA inh OD600	Ecoli rRNA inh RFP
C=CCNC(=O)CCCc1ccccc1	0	-4	-4	nt	-2	-1	-0.5	nt	nt	nt
CC(C)(C)n1nc2c(c1NC(=O)Cc1ccc(F)cc1)CSC2	10	7	-3	0.5	-7	-6	-2.5	7	2	-5.3
CCCCN(CCCNC(=O)c1ccc2nc(N3CCOCC3)sc2c1)Cc1ccccc1	-26	-9	-4	-0.1	5	10	2.0	nt	nt	nt
